Screening results (PubChem BioAssay)
Sa growth inh: inhibitors of Staphylococcus aureus growth at 42 °C. S. aureus RN4220 growth, OD600, 20 h; active compounds read low. relative growth, % (concentration not given with the values). 170,000 tested, 0.53% active;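 active = growth at 42 °C up to 50% and 20 or more points under that at 30 °C, or under 10% at both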;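 note: 300 nL library stock went into each well; scaled to the means of positive and negative controls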
GIV-Gai inh: blocks GIV peptide binding to rat Galpha-i3 | P08753 | percent of control (FP), % (concentration not given with the values) | 210,000 tested, 0.42% active | Galpha-i3/FITC-GIV peptide fluorescence polarization, 90 min; active compounds read low; scaled: aluminum fluoride 0%, vehicle 100%;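 active = replicate mean at 85% of control or lower, very high polarization wells dropped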;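 note: wells of about 15 µL received 100 nL stock; the first replicate is given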
Target sequence (P08753 whole entry, looked up): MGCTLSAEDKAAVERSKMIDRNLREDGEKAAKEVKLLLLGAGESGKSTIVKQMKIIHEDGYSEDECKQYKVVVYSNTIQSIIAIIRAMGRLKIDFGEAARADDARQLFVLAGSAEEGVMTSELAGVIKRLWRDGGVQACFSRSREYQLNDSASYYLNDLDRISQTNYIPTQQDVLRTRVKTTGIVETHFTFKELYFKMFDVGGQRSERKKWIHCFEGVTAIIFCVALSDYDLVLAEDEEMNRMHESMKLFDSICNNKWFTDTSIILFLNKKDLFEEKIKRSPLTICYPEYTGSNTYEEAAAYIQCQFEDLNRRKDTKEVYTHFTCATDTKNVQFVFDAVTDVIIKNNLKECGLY
HCMV NEC inh: inhibitors of HCMV UL50-UL53 nuclear egress complex interaction; 190,000 tested, 0.15% active; AID 1918969; inhibition, % (no concentration beside the values); HTRF UL50-UL53 interaction, normalized percent inhibition;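 active = both replicates at 50% or more, plus weaker picks with an unusually low signal ratio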;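 note: stock transfer was 100 nL into about 20 µL; 0% = negative control wells and 100% = wells with untagged competitor protein; inactives centre near -12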
Sa growth inh second temp: also measured in Sa growth inh; calls as there; relative growth, %; measured here: growth at 30 °C;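 optical density after 20 h as mean of two plates; 100% = untreated growth and lower means inhibition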
Starred values were filed as active, the others as inactive; · = no result given; & = joins results of further samples.

SMILES	Sa growth inh	Sa growth inh second temp	GIV-Gai inh	HCMV NEC inh
O=C(c1cc(-c2cccs2)nc2ccccc12)N1CCOCC1	101	88	·	-68
CN(C)CCNC(=O)C1CCN(c2nc3ccccc3[nH]2)CC1	94	78	97	·
Cc1ccc(-c2nc(CSc3nnc(C)n4c3cc3occc34)c(C)o2)cc1	105	88	100	·
CCN1CCN(CCCNC(=O)C2CCCN(c3nc4c(C)cc(C)cc4s3)C2)CC1 (configuration not stated)	92	85	100	-18
CCOc1ccc2oc(C(=O)Nc3ccc(N4CCOCC4)cc3)c(C)c2c1	105	104	·	9
CC(C)c1ccc(N(CC(=O)N2CCN(Cc3ccccc3)CC2)S(C)(=O)=O)cc1	84	82	101	·
CCN(CC)C(=O)NCCc1nnc(SC)n1C	110	83	101	0
FC(F)(F)c1ccc(-c2noc(-c3csnn3)n2)cc1	101	68	97	-3
CNC(=O)CC1C(=O)N(c2ccc(Cl)cc2)C(=S)N1NC(=O)c1cccc(F)c1 (configuration not stated)	87	44	105	·
O=C(c1ccc(S(=O)(=O)NCc2cccs2)s1)N1CCCC1	100	98	112	8
COc1cc(NC(=O)c2cc3cc4ccc(C)cc4nc3o2)cc(OC)c1OC	107	96	101	-16
CCC(=O)Nc1cccc(NC(=O)c2ccccc2Cl)c1	72	86	97	·
COc1cc(OC)cc(C(=O)Nc2ccc(O)c(-c3nc4ccccc4s3)c2)c1	·	·	97	-4
Cc1nn(CC(=O)Nc2ccc(N3CCCC3)cc2)c(=O)c2ccccc12	75	86	103	-9
O=C1CCCc2cc(S(=O)(=O)NCC3CCC(C(=O)NCc4ccccn4)CC3)ccc2N1 (configuration not stated)	·	·	106	-25
Cc1cc(C(=O)Nc2ccc(C(=O)N3CCOCC3)cc2)cs1	98	107	104	1
CCOC(=O)c1nonc1N	78	93	·	-2
Fc1ccc(Sc2cc(Cl)c(-c3ccccc3)nn2)cc1	·	·	98	-19
COc1ccc(NC(=O)Cn2cnc3sc(C)c(S(=O)(=O)N4CCN(C)CC4)c3c2=O)cc1Cl	111	97	100	62
CCCN(C(=O)CCc1nc(-c2ccccc2F)no1)c1ccc(CC)cc1	93	84	102	-2
CSc1nc2ccc(NC(=O)c3ccccc3)cc2s1	·	·	103	13
Cc1c(NC(=O)C(C)OC(=O)c2c(F)cccc2Cl)c(=O)n(-c2ccccc2)n1C (configuration not stated)	100	86	·	-4
O=C(Nc1ccccc1C(F)(F)F)N1CCC(Nc2nc3ccccc3o2)CC1	99	86	102	-9
CC(C(=O)Nc1ccc2c(c1)CCC2)n1nc(-c2ccc3c(c2)OCCO3)ccc1=O (configuration not stated)	·	·	104	-7
OC(COc1ccc(-c2ccccc2)cc1)Cn1ccnc1 (configuration not stated)	77	23	105	7
O=C(CCS(=O)(=O)c1ccc2c(c1)NC(=O)CS2)Nc1cccc(Cl)c1	·	·	125	0
CCOCCOC(=O)COc1ccc2c(=O)c(-c3cccc4ccccc34)c(C(F)(F)F)oc2c1	·	·	109	-10
CCOc1cc(C2C(C(=O)OC)=CNC=C2C(=O)OC)cc(Br)c1OCC	85	94	98	-14
CCCN(Cc1nnc(-c2ccco2)o1)C(=O)C1CC(=O)N(Cc2ccccc2)C1 (configuration not stated)	84	81	·	-6
O=C(CSc1ccccc1)Nc1ccccc1N1CCOCC1	102	99	101	4
O=C(COC(=O)C1CCN(S(=O)(=O)c2ccc3c(c2)OCCO3)CC1)c1ccc(Cl)s1	81	94	·	-24
O=S(=O)(c1ccc2c(c1)C(=NO)c1cc(S(=O)(=O)N(CCO)CCO)ccc1-2)N(CCO)CCO	90	89	108	-92
c1ccc(N2CCN(c3ncnc4c3nc3n4CCCC3)CC2)cc1	99	89	104	·
Cc1ccc(/C=N/NC(=O)Cn2ccc(C(F)(F)F)n2)o1	112	86	·	-28
CCC(=O)N1c2ccccc2NC2=C(C(=O)CC(c3ccco3)C2)C1c1ccc(OC)c(OC)c1 (configuration not stated)	·	·	107	-10
CCc1ccc(CC2C(=O)Nc3c(C)cc(C)cc32)cc1 (configuration not stated)	·	·	108	-9
COc1cc(CCC(C)NC(=O)c2ccco2)ccc1OC(=O)c1ccco1 (configuration not stated)	99	91	101	-42
CN1C(=O)/C(=C/c2ccc(C(=O)NC3CCCC3)cc2)Oc2ccccc21	82	83	107	·
O=C(NCCCN1CCCCCC1)c1ccc2c(c1)sc1nc(-c3ccccc3)cn12	117	42	112	·
c1coc(CSc2nc3ccccc3n3cnnc23)c1	105	96	106	-52

Results in GIV-Gai inh, for 2 of the compounds above:
mol,GIV-Gai inh
O=C(Nc1ccccc1C(F)(F)F)N1CCC(Nc2nc3ccccc3o2)CC1,102
CC(C(=O)Nc1ccc2c(c1)CCC2)n1nc(-c2ccc3c(c2)OCCO3)ccc1=O (configuration not stated),104

(listing goes on)
SMILES	Sa growth inh	Sa growth inh second temp	GIV-Gai inh	HCMV NEC inh
COC(=O)Cn1c(=O)oc2cc(S(=O)(=O)N(C)C3CCCCC3)ccc21	·	·	98	0
COc1cccc(NC(=O)C(Cc2ccccc2)N2Cc3ccccc3C2=O)c1 (configuration not stated)	118	87	105	·
O=S(=O)(c1ccc2c(c1)CCCN2)N1CCCCC1	101	97	·	-33
Cc1ccc(-n2nc3cc(C)c(NC(=O)c4ccc5c(c4)OCCO5)cc3n2)cc1	·	·	105	-18
COc1cc(NC(=O)CSc2ccccc2)cc(OC)c1	106	90	·	1
COc1ccc(NC(=O)Cn2nnc(C(=O)Nc3ccc(C)c(F)c3)c2N)cc1Cl	101	96	111	·
CCC(CC)C(=O)Nc1ccccc1SCc1cc(=O)n2c(ncn2CC(C)C)n1	·	·	105	-9
CC1CN(CC(=O)N2CCNC2=O)CC(C)O1 (configuration not stated)	106	100	·	-12
O=C(CCC1CCCCC1)Nc1nc2ccccc2s1	98	93	95	·
CS(=O)(=O)N1CCN(C(=O)c2ccccc2)C1	113	98	104	·
CCCNC(=O)c1ccc2c(=O)n(CC3CCCO3)c(SCC(=O)c3cc(C)ccc3C)nc2c1 (configuration not stated)	·	·	100	5
COc1ccc(NC(=O)CCc2c(C)nn3cnnc3c2C)cc1	·	·	104	-4
CC(C)Cn1cc(NC(=O)Nc2cccnc2)c2ccccc2c1=O	100	82	97	-7
Cc1ccc(Nc2c(-c3ccccc3O)nc3ccc(Br)cn23)cc1	82	96	97	56
Cc1nn(C2CC(=O)N(c3ccc(Cl)cc3)C2=O)c(C)c1C (configuration not stated)	110	78	101	-8
N=C(N)N1CCc2ccccc2C1	99&89	99&86	112	-38&-59&-24
COc1ccc(-c2cc(C(=O)N3CCN(c4ccc(F)cc4)CC3)no2)cc1OC	96	88	102	-26
Cc1ccc(Cc2nc3ccccc3nc2SCC(=O)N2CCc3ccccc32)cc1	78	91	101	·
CCN(CC)c1ccc(C=C2C(=O)OC(c3ccccc3)OC2=O)cc1 (configuration not stated)	102	93	·	9
Cc1cc2ncn(CCOc3ccccc3)c2cc1C	70	46	·	-12
CCc1cc(C(Nc2nc(C)cc(C)n2)c2cccc(OC)c2)c(NC(=O)c2ccccc2)s1 (configuration not stated)	·	·	110	0
O=c1n(Cc2ccc(F)cc2)nc2n1-c1ccccc1SC2	91	93	103	-34
Cc1csc(SCc2ccccc2C(=O)OCC(N)=O)n1	105	86	·	-9
COc1ccc2nnc(-c3ccccc3)n2n1	90	84	115	-27
O=C(O)C1SCCN1C(=O)c1ccc(Cl)cc1 (configuration not stated)	97	89	97	0
CC(=O)N/C(=N\OCc1ccc(Br)cc1)c1nonc1NC(C)=O	94	89	100	-22
CN(C)C(CNC(=S)NC1CC1)c1ccccc1 (configuration not stated)	87	93	·	-2
Cc1ccc(C(=O)N2CC(=O)Nc3ccc(Br)cc3C2c2ccc(F)cc2)cc1C (configuration not stated)	103	87	100	-16
CCn1c(C)nc2cc(-c3nc4c5c6c(sc5ncn4n3)CCCC6)ccc21	113	93	·	-8
CCSC1=N/C(=C\c2cc(Br)c(OC(C)=O)c(OC)c2)C(=O)S1	105	89	100	·
O=C(Nc1ccc(NC(=O)c2cccs2)cc1)c1ccc(Cl)cc1	106	99	104	-14
O=C(COC(=O)Cc1cccs1)Nc1ccccc1	74	93	·	-26
Cc1ccc(CNC(=O)C2CCN(c3nn4cc(-c5ccc(F)cc5)nc4s3)CC2)cc1	97	85	99	·
CCCc1nc(SCC(=O)c2ccccc2Cl)[nH]c(=O)c1C	106	101	103	0
O=C(COC(=O)Cn1cnc2ccccc2c1=O)Nc1ccc2c(c1)OCO2	71	94	·	-37
O=C(COC(=O)c1c(F)cccc1Cl)c1ccccc1F	113	88	·	-44
CC1=[N+](CCO)c2ccccc2C1(C)C	119	90	108	-13
C/C(CN1C(=O)c2ccccc2C1=O)=N/NC(=O)c1ccccc1O	115	92	95	-26
CCCC(=O)N(Cc1nc2ccccc2c(=O)[nH]1)C1CCCC1	89	105	105	8
COC(=O)c1ccc(CSc2n[nH]c(=O)n2C2CC2)cc1	71	89	·	-12
NC(N)=Nc1ccccc1F	101	94	101	-9
CCc1ccc2[nH]c(=O)c(CN(Cc3ccco3)Cc3nnnn3Cc3ccccc3)cc2c1	102	97	102	-2
Cc1ccc(NC(=O)c2oc3ccc(S(=O)(=O)N(C)C4CCCCC4)cc3c2C)c(C)c1	115	92	106	·
O=C1c2ccccc2NC(c2cccs2)N1c1ccccc1 (configuration not stated)	108	90	·	-8
COCCn1c(SC(C)C#N)nc2cc(Cl)ccc2c1=O (configuration not stated)	88	82	·	-11
Clc1cccc(-n2ncc3c(NC4CCCC4)ncnc32)c1	81	69	95	-13
COc1cc(/C=C/C(=O)Nc2ccc(-c3nnc4n3CCCCC4)cc2)ccc1OCC#N	81	88	·	-57
N#Cc1c(/N=C/N2CCCCC2)sc2c1CCCC2	84	99	97	-12
Cc1ccc([N+](=O)[O-])cc1S(=O)(=O)N1CCn2cccc2C1c1ccc(F)c(F)c1 (configuration not stated)	103	83	98	·
CCC(=O)Nc1ncc2c(n1)CC(C)(C)CC2=O	83	103	·	-1
O=c1cc(-c2cccs2)oc2ccc(Br)cc12	97	101	·	10
CN1CCN(/C=C2\C(=O)N(c3ccc(Cl)cc3)C(=O)c3ccccc32)CC1	103	73	·	-17
CNC(=O)N(C1=NCCS1)c1ccccc1	82	83	107	-27
Cn1c(=O)c2c(nc(N3CCOCC3)n2Cc2ccc(Br)cc2)n(C)c1=O	123	93	103	-17
COC(=O)c1ccc(NC(=O)c2cc3ccccc3o2)cc1	91	92	97	-11
OCCN1CCN(CC#CCn2c3ccccc3c3ccccc32)CC1	119	83	102	·
Cc1ccc(NC(=O)CSc2nc(=O)n(CCN3CCOCC3)c3c2CCC3)c(C)c1	88	92	93	·
COc1cc(-c2nnc(-c3ccc(N4CCOCC4)cc3)o2)cc(OC)c1OC	111	94	99	-14
COc1cc(Br)c(CCNC(=O)c2ccco2)cc1OC	98	102	106	7
O=S(=O)(Cc1ccc(Cl)cc1)c1ccc(NCCN2CCCC2)nn1	·	·	99	-15
The results go on:
SMILES	Sa growth inh	Sa growth inh second temp	GIV-Gai inh	HCMV NEC inh
COc1cccc(C2=NS(=O)(=O)N(C)C(C(=O)Nc3ccccc3SC)=C2)c1	89	60	109	-10
CCCCCn1c(=O)c2ccccc2n2c(CN3c4cccc5cccc(c45)S3(=O)=O)nnc12	85	93	·	-41
COc1ccccc1-c1cc2nc(C)c(CCC(=O)NCCc3ccc(SC)cc3)c(C)n2n1	87	95	108	-8
CCOc1ccc(CCNC(=O)C2CCCN(S(=O)(=O)N(C)c3ccc(F)cc3)C2)cc1 (configuration not stated)	110	83	104	·
CN(C)CCN1C(=O)C(=O)/C(=C(/O)c2ccccc2)C1c1ccco1 (configuration not stated)	90	91	·	-17
O=C(CCN1CCOCC1)Nc1c(-c2ccccc2)c2cc(Br)ccc2[nH]c1=O	105	87	103	-13
CCOC(=O)/C(C#N)=C/c1ccccc1	90	84	103	-76
COc1ccc(-c2onc(C)c2C)cc1S(=O)(=O)N1CCc2ccccc21	97	100	113	·
COc1cccc(CNC(=O)C2CCC(CNS(=O)(=O)c3cccs3)CC2)c1 (configuration not stated)	96	84	101	-1
COc1ccc(Cl)cc1NC(=O)c1nc(S(C)(=O)=O)ncc1N(Cc1ccc(C)cc1)Cc1ccco1	97	86	104	6

Grouped by structure, the entries above containing a thiophene ring, fused or not
SMILES	Sa growth inh	Sa growth inh second temp	GIV-Gai inh	HCMV NEC inh
O=C(c1cc(-c2cccs2)nc2ccccc12)N1CCOCC1	101	88	·	-68
O=C(c1ccc(S(=O)(=O)NCc2cccs2)s1)N1CCCC1	100	98	112	8
Cc1cc(C(=O)Nc2ccc(C(=O)N3CCOCC3)cc2)cs1	98	107	104	1
COc1ccc(NC(=O)Cn2cnc3sc(C)c(S(=O)(=O)N4CCN(C)CC4)c3c2=O)cc1Cl	111	97	100	62
O=C(COC(=O)C1CCN(S(=O)(=O)c2ccc3c(c2)OCCO3)CC1)c1ccc(Cl)s1	81	94	·	-24
CCc1cc(C(Nc2nc(C)cc(C)n2)c2cccc(OC)c2)c(NC(=O)c2ccccc2)s1 (configuration not stated)	·	·	110	0
CCn1c(C)nc2cc(-c3nc4c5c6c(sc5ncn4n3)CCCC6)ccc21	113	93	·	-8
O=C(Nc1ccc(NC(=O)c2cccs2)cc1)c1ccc(Cl)cc1	106	99	104	-14
O=C(COC(=O)Cc1cccs1)Nc1ccccc1	74	93	·	-26
O=C1c2ccccc2NC(c2cccs2)N1c1ccccc1 (configuration not stated)	108	90	·	-8
N#Cc1c(/N=C/N2CCCCC2)sc2c1CCCC2	84	99	97	-12
O=c1cc(-c2cccs2)oc2ccc(Br)cc12	97	101	·	10
COc1cccc(CNC(=O)C2CCC(CNS(=O)(=O)c3cccs3)CC2)c1 (configuration not stated)	96	84	101	-1
